RN4220 kill: growth inhibition of S. aureus RN4220, primary screen, OD600 | 16 h | AID 1259311, 2017 | inhibition, % (concentration not given with the values) | actives 0.33% (n = 330,000);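 active means z-score of -3 or lower and OD600 up to 0.18 on both plates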;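 further: plate controls were untreated cells for no effect and reference antibiotic for full effect; stock transfer was 100 nL into about 80 µL; one replicate is shown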
Autofluor counter: flagged as autofluorescent in microsphere protease counterscreen; compound autofluorescence counterscreen, microsphere flow cytometry; active compounds read high; fluorescence intensity (concentration not given with the values); actives 3.1% (n = 360,000);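 active means at least 3 SD above the mean of all compounds, about 16000 in these data; inconclusive means too few beads counted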;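 further: 100 nL of 1 mM stock went into each well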
BJeLR viability: MLPCN primary cell-based screen for lethality selective to Ras in HRASV12 cells. BJeLR (HRASV12) viability, CellTiter-Glo ATP luminescence, 48 h; reference of the scale not given here. inhibition, % (test concentration not listed). actives 0.17% (n = 300,000). AID 1554, 2009;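 active means replicate mean above 50%; inconclusive means above 50% but judged a plate artefact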;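 further: 50 nL library stock added to about 25 µL; numbers are from one replicate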
Mtb hypoxia inh: PubChem AID 1159583; M. tuberculosis hypoxia-regulated fluorescent reporter, fluorescence; fluorescence inhibition, % (concentration not given with the values); actives 0.1% (n = 300,000);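 active means 35 to 45% if threefold the growth effect, above 45% if 1.5-fold the growth effect; inactive means the rest, general growth blockers included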;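 further: wells of about 50 µL received 100 nL stock; 0% = vehicle wells and 100% = reference inhibitor wells; whole bacteria with a GFP reporter of the hypoxia response; strong numbers were not always called active; many hits fall short of the cut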
Sa ugtP lethal: growth inhibition of ugtP-null S. aureus, primary screen, RN4220 ugtP deletion, OD600 | actives 0.54% (n = 330,000) | AID 1259309, 2017 | growth inhibition, % (test concentration not listed) | 16 h; some inactives read as strong as hits;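 active means z-score under -3 and OD600 up to 0.15 on both plates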;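 further: plate controls were untreated wells for no effect and antibiotic for full effect; wells of about 80 µL received 100 nL stock; the first replicate is given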
PrP 5UTR inh: inhibition of PrP 5' UTR reporter expression; cell-based PrP 5' UTR mRNA reporter, plate reader; inhibition, % (no concentration beside the values); actives 0.35% (n = 340,000);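 active means every replicate at 50% or more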;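 further: 0 = median of the neutral control wells; tested in H4 reporter cells; numbers are from one replicate; inactives centre near -14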
Mtb hypoxia inh growth: second read-out of Mtb hypoxia inh, no call of its own (marks repeat the call); growth inhibition, %; measured here: M. tuberculosis growth (absorbance);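 0% = vehicle and 100% = reference antibiotic; read after six days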
An asterisk follows results filed as active; ? = inconclusive; nt = no result given.

SMILES	RN4220 kill	Autofluor counter	BJeLR viability	Mtb hypoxia inh	Mtb hypoxia inh growth	Sa ugtP lethal	PrP 5UTR inh
CC(C)NC(=O)CCCn1c(=S)[nH]c2cc3c(cc2c1=O)OCO3	2.3	9872	1	19	3	0	-14
CNCC(C)c1ccccc1 (configuration not stated)	nt	1922	-4	nt	nt	nt	-37
CCCCC(=O)c1ccc(O)cc1	7.7	10130	-1	12	16	2	-8
CCCCCCCC(=O)NNC(=O)c1c(O)c2ccccc2n(CC)c1=O	26	4472	-2	6	-1	14	-8
COc1ccc(C(=O)Nc2ccc(N3CCC(C)CC3)cc2)cc1Br	1.3	5824	2	-4	-4	7	-40
COc1ccc(-c2oc3ncn(Cc4ccco4)c(=N)c3c2-c2ccc(OC)cc2)cc1	-12	5796	5	nt	nt	-21	2
CN(C)c1ccc(S(=O)(=O)NCC(=O)OCC(=O)c2ccc[nH]2)cc1[N+](=O)[O-]	3.3	3479	nt	8	13	2	-6
CCn1ncc([N+](=O)[O-])c1C(=O)Nc1ccc(C(=O)N2CCCCC2)cc1	5.4	9469	-5	2	-2	8	-16
COc1ccccc1NC(=O)CCc1nnc2ccc(NCc3ccco3)nn12	0.1	6199	-3	2	-1	4	-3
COc1ccc(CCN2CC(C(=O)OCC(=O)NC(C)c3cccc(Cl)c3)CC2=O)cc1OC (configuration not stated)	-12	9463	nt	12	4	10	-34
Cn1cc([N+](=O)[O-])c(C(=O)N/N=C\c2c[nH]c3ccccc23)n1	nt	2290	2	nt	nt	nt	-21
COc1cnn(-c2ccccc2)c(=O)c1OC	3.7	nt	-3	-5	-6	4	-20
Cc1cc(S(=O)(=O)N2CCCOC2CNC(=O)C(=O)NCc2cccs2)ccc1F (configuration not stated)	2.6	5584	-29	2	1	3	-23
Cc1nc(CS(=O)(=O)c2ccc(Cl)cc2)cc(Sc2ccccc2Cl)n1	0.3	2888	3	nt	nt	14	-13
CN1C(=O)c2cccc3c(S(N)(=O)=O)ccc1c23	4.5	3312	6	-5	-1	-1	-11
Cc1ccsc1C1Nc2ccc3ncccc3c2C2=C1C(=O)CC(C)(C)C2 (configuration not stated)	-3.2	16347*	3	-4	-5	-12	-6
O=S(=O)(Nc1nc2ccccc2nc1N1CCc2ccccc2C1)c1ccc(Br)cc1	-18	2548	nt	-7	7	0	-88
CCOc1ccccc1C=NNC(=O)c1cc(C(C)C)[nH]n1	0.3	nt	nt	13	3	13	nt
COc1cc2c(cc1OC)-c1cc(Nc3cccc(F)c3)nc(=O)n1CC2	-3.7	3725	15	3	-3	5	-1
C#C[C@]1(O)CC[C@H]2[C@@H]3CCC4=C(CCC(=O)C4)[C@H]3CC[C@@]21C	nt	5500	4	nt	nt	nt	1
Cc1nn(-c2ccc(Cl)cc2)c2sc(C(=O)N3CCN(c4ccccn4)CC3)cc12	-7.9	3870	-8	16	8	3	-6
CC(=O)C1=C(c2ccccc2)NC(=O)NC1c1ccccc1OCC(=O)Nc1ccccc1 (configuration not stated)	-1.0	3492	-16	-1	-1	-19	2
COC(=O)c1sccc1NC(=O)c1c(C)c(-c2cccc(Cl)c2)nc2ccccc12	-14	2649	2	2	5	15	-17
O=C(/C=C\c1ccco1)c1ccc(NC(=O)c2ccco2)cc1	6.6	3615	10	18	7	-8	-42
CC(=O)Nc1ccc(S(=O)(=O)N2CCC(N(C)CCC(C)C)CC2)cc1	-7.4	3510	-4	nt	nt	-5	1
CC(=O)N(C1=NCCCS1)c1ccccc1Cl	3.2	3409	-6	10	0	4	-14
CC(CC1(O)C(=O)N(C)c2ccccc21)=NO (configuration not stated)	1.8	nt	nt	6	4	2	nt
CC1CN(c2ncnc3c2oc2ccccc23)CC(C)O1 (configuration not stated)	12	nt	2	1	17	2	-10
CCOC(=O)c1cnc2c(cnn2C)c1NCCCN(C)C	-1.5	3995	4	5	-1	1	-13
CC(C)(C)c1cc(OC(=O)c2ccccc2F)ccc1O	-2.6	4395	6	7	-3	8	-3
O=C1CC(C(=O)N2CCCc3ccccc32)CN1c1ccc(Cl)cc1 (configuration not stated)	5.4	3306	-10	3	-7	13	-10
COc1ccc(N(CC(=O)Nc2c(C)n(C)n(-c3ccccc3)c2=O)S(=O)(=O)c2ccc(F)cc2)cc1	0.1	1923	6	-5	4	2	6
O=C(Nc1ccc(Cl)c(Cl)c1)Nc1nnc(-c2ccncc2)s1	4.0	2715	nt	7	-4	0	-9
CN(CC1CCCN(CCc2ccc(F)cc2)C1)C(=O)CCC(N)=O (configuration not stated)	-4.4	3426	-22	-11	-1	-4	-5
O=C(NCc1cccnc1)c1ccc2c(c1)C(=O)N(Cc1ccccc1)C2=O	1.5	4681	-9	0	0	1	-13
COc1ccccc1N1CCN(S(=O)(=O)c2c[nH]c(=O)[nH]c2=O)CC1	-5.7	nt	-10	-4	6	7	-9
CC(C)CNC(=O)NC1(C(F)(F)F)Oc2ccccc2O1	3.8	4154	nt	12	2	3	-12
O=c1c(OC2OC(CO)C(O)C(O)C2O)c(-c2ccc(O)c(O)c2)oc2cc(O)cc(O)c12 (configuration not stated)	-3.0	3405	11	9	-3	-4	-2
CC(C)(C)c1ccc(NC(=O)C2CCCN(c3cnccn3)C2)cc1 (configuration not stated)	1.4	4156	-2	5	12	-1	-14
CC[C@@H](C)[C@H](N)C(=O)NC[C@H]1O[C@@H](n2cnc3c(N)ncnc32)[C@H](O)[C@@H]1O	2.7	2990	nt	-2	2	9	-3
CCOc1ccc(C(=O)CCCC(=O)c2ccc(OCC)cc2)cc1	7.9	3763	0	-4	13	0	-20
CCN(CC)c1ccc(/C=N/NS(=O)(=O)c2ccc(CNC(C)=O)cc2)cc1	nt	2494	1	nt	nt	nt	0
O=C(CSc1nnnn1-c1ccccc1)Nc1ccc(N2CCOCC2)c(Cl)c1	0.9	10247	2	10	9	16	-22
CCOC(=O)CN1C(=O)C(O)(C2CCc3ccccc3C2=O)c2ccccc21 (configuration not stated)	-4.6	3668	-5	8	2	-4	-25
Cc1nc(NC(=O)COC(=O)C2CC3CCCC(C2)C3=O)c(Cl)cc1Cl (configuration not stated)	2.7	3969	nt	9	6	3	-24
CCOC(=O)CC(=O)CSc1nc(-c2ccccc2)cc(-c2ccc(Cl)cc2)c1C#N	12	7800	12	3	10	-9	nt
CN(C)S(=O)(=O)c1ccc(C(=O)NCC(=O)N/N=C/c2ccco2)cc1	nt	2564	-2	nt	nt	nt	-23
COc1ccccc1-n1cc(-c2ccccc2)[nH]c1=S	6.0	5207	-5	15	7	3	-23
Cc1cc(C(=O)Nc2ccc(N3CCCC3)c(Cl)c2)ccc1[N+](=O)[O-]	-0.8	2287	-11	12	2	-15	-49
O=C(N/N=C/c1ccc(N2CCOCC2)cc1)c1ccc(O)cc1	nt	4050	2	nt	nt	nt	-14
COc1cccc(C(=O)OCC(=O)c2ccc(Br)s2)c1	3.3	5828	1	1	5	5	-20
Cn1c(=O)n(C)c2cc(NS(=O)(=O)c3ccc(Br)s3)ccc21	12	3225	4	9	-7	7	-14
COCC(=O)N(CCc1ccc(OC)cc1)Cc1nc2ccccc2c(=O)[nH]1	0.5	3988	1	nt	nt	2	-5
COc1ccc(NC(=O)Cn2c([N+](=O)[O-])cnc2C)cc1Cl	0.7	3683	-3	3	-2	9	-12
COC(=O)C1=NN(C(=O)c2ccccc2)C(O)(c2ccc([N+](=O)[O-])cc2)C1 (configuration not stated)	4.1	3358	-1	21	7	11	-13
CCc1nnc(NS(=O)(=O)c2ccc(NC(=S)NC(=O)c3ccc(OC)c(OC)c3)cc2)s1	4.6	2038	5	-7	16	23	-12
COc1ccc(S(=O)(=O)NC(C)C(=O)Nc2ccccc2C(F)(F)F)cc1 (configuration not stated)	3.0	11855	1	3	8	-3	-9
CCOC(=O)c1csc(NC(=O)c2ccc(N3C(=O)CCC3=O)cc2)n1	-0.1	4371	0	-11	5	1	-41
O=C(Nc1ccc2[nH]ncc2c1)c1ccccc1Br	1.7	nt	-8	5	-3	4	-36
C/C(=N\N=C(N)N)c1cccc(Cl)c1	nt	4018	6	nt	nt	nt	-20

Entries of single compounds as entered above. Order of screens: RN4220 kill | Autofluor counter | BJeLR viability | Mtb hypoxia inh | Mtb hypoxia inh growth | Sa ugtP lethal | PrP 5UTR inh
Cc1nc(NC(=O)COC(=O)C2CC3CCCC(C2)C3=O)c(Cl)cc1Cl (configuration not stated) is listed with 2.7 | 3969 | nt | 9 | 6 | 3 | -24
Cn1c(=O)n(C)c2cc(NS(=O)(=O)c3ccc(Br)s3)ccc21 is listed with 12 | 3225 | 4 | 9 | -7 | 7 | -14
O=C(N/N=C/c1ccc(N2CCOCC2)cc1)c1ccc(O)cc1 is listed with nt | 4050 | 2 | nt | nt | nt | -14
COC(=O)C1=NN(C(=O)c2ccccc2)C(O)(c2ccc([N+](=O)[O-])cc2)C1 (configuration not stated) is listed with 4.1 | 3358 | -1 | 21 | 7 | 11 | -13
CCOC(=O)CC(=O)CSc1nc(-c2ccccc2)cc(-c2ccc(Cl)cc2)c1C#N is listed with 12 | 7800 | 12 | 3 | 10 | -9 | nt

(more compounds)
SMILES	RN4220 kill	Autofluor counter	BJeLR viability	Mtb hypoxia inh	Mtb hypoxia inh growth	Sa ugtP lethal	PrP 5UTR inh
CCN(Cc1ccccc1)C(=O)C1CCN(Cc2sccc2C)CC1	-1.2	1921	3	10	5	2	-12
CC(C)Cn1cc(C(=O)N2CCC(C)CC2)c2c3ccccc3n(C)c2c1=O	0.3	3611	6	1	1	15	-4
COc1ccc(CC(NC(C)=O)C(=O)NC2CCN(c3nnnn3-c3ccccc3)CC2)cc1 (configuration not stated)	-1.0	4487	-2	nt	nt	-3	-1
CC(CC(=O)NC1CCCCC1)=NNC(=O)c1ccccc1C	0.6	nt	nt	9	-2	-1	nt
O=C(O)c1cccc(Nc2nc(Nc3ccccc3)nc(N3CCCC3)n2)c1	5.6	3036	0	-11	-6	-32	-3
O=C(Nn1cnnc1)c1cc2c(s1)CCCC2	7.2	10214	-11	1	-3	-1	2
CCCCN(CC)C(=O)Cc1ccc(Br)cc1	9.2	2320	0	12	1	7	-6
COCCNc1nc(N)c([N+](=O)[O-])c(NCC2CCCO2)n1 (configuration not stated)	2.4	6843	10	8	0	-3	-11
COc1ccc(C=NNC(=O)CC(=O)NCCc2ccccc2)cc1OC	4.9	nt	nt	3	-2	19	nt
CC1(CCC(=O)N2CCCC(Nc3ccc(F)cc3)C2)CC1 (configuration not stated)	1.5	nt	-2	18	5	-2	-14
CCN(CC)S(=O)(=O)c1ccc(O)c(C(=O)OCC(=O)NC2CCCC2)c1	4.1	4196	5	19	10	4	-14
COc1ccccc1NC(=O)NNC(=O)c1ccncc1	2.1	3823	nt	15	11	3	-19
Cc1ncc(CO)c(CNc2ccc(Oc3ccccc3)cc2)c1O	-3.9	3736	2	6	8	2	-22
Cc1nn(-c2nnc(C)c(=O)[nH]2)c(C)c1SCC(=O)Nc1ccc(F)cc1	-4.5	3322	-1	11	12	2	-21
COc1ccc2cc(CCNC(=O)c3ccc(S(=O)(=O)N4CCCC4)cc3)c(=O)[nH]c2c1	1.3	?	-5	0	6	2	-16
CCCCC1(C)OC(=O)C(=Cc2ccc(N(CC)CC)cc2)C(=O)O1 (configuration not stated)	3.7	4025	9	6	6	-6	-16
Cc1ccc(-n2c(SCc3ccc(C#N)cc3)nnc2-c2ccccn2)cc1	3.2	9428	-9	-1	2	2	-17
Cc1cccc(C(=O)OCC(=O)Nc2ccc(F)cc2)c1	1.6	5730	2	5	-2	3	-17
Cc1ccc(C2C3C(=O)N(C)C(=O)C3[C@]3(Cc4ccccc4)C(=O)N(Cc4ccccn4)CC(=O)N23)o1 (some centres not stated)	4.5	nt	nt	1	9	-1	nt
Cc1nc2ncnn2c(C)c1Cc1ccccc1Cl	4.2	5847	-8	3	0	8	-51
COc1ccc(NC(=O)N2CCCC(CCC(=O)N(C)CCc3ccccn3)C2)cc1 (configuration not stated)	3.0	2521	7	5	13	-4	-13
CCCN1CCc2c(sc(NC(=O)c3ccc(S(=O)(=O)N(C)c4ccccc4)cc3)c2C(=O)NC)C1	3.0	7119	0	1	22	-3	-4
O=C(COC(=O)/C=C/c1ccc(C(F)(F)F)cc1)NC1CCS(=O)(=O)C1 (configuration not stated)	3.0	nt	3	-10	-11	3	-13

Bioassay records (PubChem)
